Six1-Eya2 inh = Six1/Eya2 interaction inhibition; AlphaScreen GST-Six1/His-Eya2 binding, biochemical; hits give low values; control for the full effect not named in the record; activity change, % (concentration not given with the values); Q15475+O00167; 0.56% of 360,000 active; AID 651725; in the data active = activity change below about -65%; inconclusive = about -30% to -65%; inactive = above about -30%; also: % is scaled to controls: 0 for no effect and ±100 for the full control effect
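Compounds are tested against tagged Six1 and Eya2 proteins bridged by glutathione donor and nickel acceptor beads; after a one-hour incubation at 37 °C without light, AlphaScreen emission is recorded.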
TRPML1 ag = activates the human TRPML1 channel; Q9GZU1; TRPML1-expressing cells, Ca2+ dye fluorescence, FDSS; host cell line not named in the record; reference of the full effect not given here; activation, % (no concentration beside the values); 0.12% of 410,000 active; in the data active = activation above about 50%; inconclusive = about 30% to 50%; inactive = below about 30%; also: 0% is about no effect; the text of the record puts the active cut at 80%
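Calcium fluorescence on an FDSS kinetic reader gave the read-out. Tet-induced TRPML1-DL cells were plated overnight, dye-loaded (Ca8 with quencher, 45-90 min, room temperature, dark), then read 110 s after compound addition, and again 110 s after 4uM final 54-4 (EC80).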
D2 potentiator = potentiates the human D2 dopamine receptor allosterically; P14416; DiscoveRx D2 beta-arrestin cells, luminescence, 90 min; 100% = 57 uM dopamine signal; potentiation, % (concentration not given with the values); 0.23% of 360,000 active; AID 624464; active = potentiation of 50% or more; inconclusive = 30% to 50%; inactive = 30% or less;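 also: compound concentration not given in the record; tested on top of an EC20 dose of dopamine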
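PathHunter D2 cells, attached overnight at 37 deg C, received compound in DMSO plus dopamine at EC20 (50 nM final) for 90 min at 37 deg C. Beta-arrestin recruitment was read as luminescence after 1 h with detection reagent at ambient temperature.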
TRPML1 blocker = human mucolipin-1 channel inhibition. Q9GZU1. TRPML1-inducible cells, Ca2+ dye fluorescence, FDSS; hits give low values; inhibition of EC80 agonist-evoked calcium signal. activity change, negative = inhibition, % (concentration not given with the values). 0.02% of 390,000 active. AID 624415; in the data active means activity change below about -50%; inconclusive means about -30% to -50%; inactive means above about -30%;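 also: stimulus is agonist 54-4 at its EC80 concentration; % is scaled to controls: 0 for no effect and ±100 for the full control effect; compound concentration not given in the record; the text of the record puts the active cut at -80%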
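Calcium fluorescence in TRPML1-DL cells induced overnight with Tet: a 110 s read after compound pin addition, then a 110 s antagonist read after challenge with 54-4 at 4 uM final (EC80).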
TRPV1 PAM = enhances activation of the human vanilloid receptor TRPV1. 0.02% of 320,000 active. TRPV1-expressing cells, Fluo-8 calcium influx, capsaicin EC20 potentiation; host cell line not named in the record; control for the full effect not named in the record. Q8NER1. AID 540277. potentiation, % at 8.33 µM; active means potentiation above 80%; inconclusive means 30% to 80%; inactive means below 30%; also: 0% is about no effect
Target sequence (Q8NER1 whole entry, looked up): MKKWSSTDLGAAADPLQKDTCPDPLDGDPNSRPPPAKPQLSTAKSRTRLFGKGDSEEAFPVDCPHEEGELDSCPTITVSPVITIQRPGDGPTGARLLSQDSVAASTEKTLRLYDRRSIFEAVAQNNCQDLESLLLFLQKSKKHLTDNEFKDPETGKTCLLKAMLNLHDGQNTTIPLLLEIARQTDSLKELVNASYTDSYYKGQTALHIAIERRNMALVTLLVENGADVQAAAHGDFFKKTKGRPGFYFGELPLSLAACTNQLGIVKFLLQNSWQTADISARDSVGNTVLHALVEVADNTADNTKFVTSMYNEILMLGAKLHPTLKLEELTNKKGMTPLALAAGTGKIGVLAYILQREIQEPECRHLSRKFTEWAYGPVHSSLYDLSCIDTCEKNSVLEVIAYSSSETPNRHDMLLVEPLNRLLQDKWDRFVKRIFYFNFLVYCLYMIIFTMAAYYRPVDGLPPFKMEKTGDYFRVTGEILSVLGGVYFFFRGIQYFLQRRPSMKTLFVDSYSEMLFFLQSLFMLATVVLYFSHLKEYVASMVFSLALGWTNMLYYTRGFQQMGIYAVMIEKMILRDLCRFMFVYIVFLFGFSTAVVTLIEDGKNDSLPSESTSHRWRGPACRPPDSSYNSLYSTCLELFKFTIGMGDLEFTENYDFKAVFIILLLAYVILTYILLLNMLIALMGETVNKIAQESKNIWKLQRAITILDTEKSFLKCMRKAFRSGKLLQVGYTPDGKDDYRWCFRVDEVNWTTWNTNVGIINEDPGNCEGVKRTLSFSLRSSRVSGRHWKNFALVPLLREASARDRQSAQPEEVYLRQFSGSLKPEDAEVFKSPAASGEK
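TRPV1-expressing cells were cultured overnight at 35.5C and loaded with Fluo-8 calcium dye for 40 to 90 min at room temperature. After a 10 s baseline, compound was added and calcium influx was read kinetically for 3 min (ex 480/em 520 nm).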
CtBP-E1A inh = blocks the CtBP interaction with E1A; AlphaScreen GST-E1A/His-CtBP binding, 1536-well; hits give low values; control for the full effect not named in the record; activity change, % (test concentration not listed); 0.49% of 340,000 active; in the data active means activity change below about -65%; inconclusive means about -30% to -65%; inactive means above about -30%; also: % is scaled to controls: 0 for no effect and ±100 for the full control effect; compound concentration not given in the record
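Protein mix (5X: 125 nM each GST-E1A, His-CtBP) was incubated with pinned compound 2 h at 37 deg C in dark, in 50 mM Tris pH 8.0 buffer with 300 mM NaCl. Glutathione donor and nickel acceptor beads followed; AlphaScreen signal read after 1 h.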
The depositor's hits bear a star; ? = inconclusive; . = no result given; & = joins results of further samples.

Every second line gives: Six1-Eya2 inh	TRPML1 ag	D2 potentiator	TRPML1 blocker	TRPV1 PAM	CtBP-E1A inh
> O=c1[nH]c2ccccc2nc1C(F)(F)F
 : 7	-0.6	-8	-7	.	7
> CC(C)=CCCC1=CCC(/C(C)=N/NC(N)=O)CC1 (stereo not given)
 : -1	-0.4	-17	7	-7	-19
> CCOc1cc(C)c(Cl)cc1S(=O)(=O)N(C)C
 : 16	0.2	-3	-17	15	-1
> Cc1cc(C)cc(OCC(=O)OCCN2C(=O)c3ccccc3C2=O)c1
 : 16	2.0	4	9	19	7
> CC(C)OP(=O)(c1ccc(N(C)C)cc1)C(O)c1ccncc1 (stereo not given)
 : 2	-0.3	-2	-11	-40	2
> CCOc1cc(NC(=O)c2ccccc2OC)c(OCC)cc1NC(=O)c1ccccc1
 : 1	0.0	-4	1	?	10
> CC1CC(C)CN(C(=O)CNC(=O)c2sc3ccccc3c2Cl)C1 (stereo not given)
 : -4	4.9	-3	-4	-13	-3
> O=C(CSc1nnnn1-c1ccccc1)Nc1ncc2c(n1)CC(c1ccco1)CC2=O (stereo not given)
 : -6	-1.1	-3	10	?	-2
> COc1ccc(/C=N/NC(=O)c2cc3c(ccc4ccccc43)o2)c(OC)c1
 : -5	1.3	2	-2	6	22
> CCOC(=O)N1CCN(CCC(=O)Nc2ccc(OC(F)(F)F)cc2)CC1
 : -2	-0.7	-1	-11	7	5
> CCOC(=O)Cn1c(=O)c2c(nc3n2CCS3)n(C)c1=O
 : 0	0.5	-1	16	20	-3
> O=S(=O)(NC(=NCc1ccccc1)c1ccc(F)cc1)c1ccc(Cl)cc1
 : 5	-0.5	-2	-17	2	7
> O=C(Nc1cccc(-c2nc3cccnc3s2)c1)C1c2ccccc2Oc2ccccc21
 : 0	0.2	-1	-2	-15	4
> CN(C)C=NC(=O)c1cc(C(=O)c2ccc(Cl)cc2Cl)c[nH]1
 : -5	-0.3	-2	-10	3	6
> Cc1ccc(C(=O)N2CCN(C(=O)CN3CCOCC3)C2)cc1
 : -5	-0.1	-6	-6	-4	0

More structures follow.
Every second line gives: Six1-Eya2 inh	TRPML1 ag	D2 potentiator	TRPML1 blocker	TRPV1 PAM	CtBP-E1A inh
> O=C(O)Cc1ccc(C(=O)c2ccccc2F)s1
 : 4	0.0	-13	-1	0	3
> CCN(CC(=O)Nc1ccc(S(=O)(=O)N2CCOCC2)cc1)Cc1ccccc1
 : 5	1.6	-18	-16	-12	-1
> COc1cc(-c2cnc3c(NC=O)cc(-c4ccc(C)cc4)cn23)cc(OC)c1OC
 : -15	-0.6	-1	.	.	-12
> COc1ccccc1C(=O)Nc1ccc(OCC(=O)N2CC(C)CC(C)C2)cc1 (stereo not given)
 : -7	0.5	-6	3	-1	.
> CCOc1ccc(CNC(=S)N/N=C/c2ccc(OC)c(OC)c2)cc1
 : ?	4.2	9	71	5	4
> COc1cc(C(=O)OCC(=O)N2CCCC2=O)cc(OC)c1C
 : -1	0.6	-3	-4	.	-3
> O=S(=O)(Cc1ccc(Cl)cc1)Oc1ccc(Cl)cc1
 : 54	5.3	-4	-17	.	63
> COc1ccc(NC(=O)C2CC(=O)N(c3ccccc3F)C2)cc1S(=O)(=O)N1CCCCC1 (stereo not given)
 : 1	-0.2	-4	4	.	1
> O=C(Nc1cccnc1Cl)c1cc(-c2cccc(Cl)c2)on1
 : 1	0.4&-0.7	-3	11&-6	9	-1
> Cc1ccc(-n2c(C)nn(CCOc3ccccc3)c2=O)cc1
 : 2	0.5	-6	-14	-15	2
> CC(SC(=S)N(C)Cc1cccs1)C(=O)O (stereo not given)
 : 5	-0.1	-4	-3	2	-12
> COCCn1c(=NC(=O)c2ccc(S(=O)(=O)N3CCCc4ccccc43)cc2)sc2cc(S(C)(=O)=O)ccc21
 : 2	0.5	7	-22	-16	4
> c1cncc(CSc2ccc(-c3cccs3)nn2)c1
 : 3	-0.3	3	17	-3	8
> CC1C2CC(C(S(=O)(=O)N3CCOCC3)C2=O)C1(C)C (stereo not given)
 : 8	0.2	-6	-9	19	7
> CCS(=O)(=O)N1CCC(C(=O)NCc2ccc3c(c2)OCO3)CC1
 : 6	0.2	-5	-6	1	.

Next records
Every second line gives: Six1-Eya2 inh	TRPML1 ag	D2 potentiator	TRPML1 blocker	TRPV1 PAM	CtBP-E1A inh
> OC1=C(O)c2nc3cc(C(F)(F)F)ccc3nc21
 : -10	-0.9	-14	-3	-8	-5
> CCOC(=O)C1=C(C)Nc2ccccc2N=C1NC(=O)c1oc2ccccc2c1COC
 : 2	3.6	-13	35	-9	5
> Cc1ccc(Cn2nnc3c(=O)[nH]c(C4CCN(S(=O)(=O)c5ccc(C)cc5)CC4)nc32)cc1
 : -2	2.3	-2	-3	-8	-7
> CCOc1ccc(N=Cc2ccc3ccccc3c2)cc1
 : 1	0.4	-6	-5	5	-9
> CCc1nnc(NC(=O)c2ccc(Br)c(S(=O)(=O)N3CCOCC3)c2)s1
 : -14	0.4	-4	18	-16	-3
> COc1ccc(S(=O)(=O)N2CCC(C(=O)Oc3c(OC)cccc3OC)CC2)cc1OC
 : -4	2.8	-8	-5	5	-1
> Cc1[nH]n(C(N)=S)c(=O)c1N=Nc1ccc(Br)cc1
 : 6	2.5	-7	-1	-12	.
> COc1ccc(/C=C2/C(=O)C(C)(C(C)C)CCC2C)cc1 (stereo not given)
 : 9	0.3	6	26	-35	6
> Cc1nc2sc(C(c3ccc(Cl)cc3)N3CCOCC3)c(O)n2n1 (stereo not given)
 : 4	0.7	5	?	6	7
> CCOc1ccc(Nc2nc(Cc3nnc(SCC(=O)c4ccc(C)cc4)o3)cs2)cc1
 : -4	2.2	-14	2	9	-4
> CC1(C(=O)NS(=O)(=O)c2ccc(Cl)cc2)CCN1C(=O)CCc1ccc(Cl)cc1Cl (stereo not given)
 : 3	-0.4	-9	.	.	0
> CC(=O)Nc1ccc2ccc3cccc4ccc1c2c34
 : 4	0.4	-12	-11	-5	12
> Cc1ccccc1CN(c1ccc(C(=O)Nc2ccccc2C(=O)N2CCCC2)cc1)S(C)(=O)=O
 : -1	-0.6	-6	-14	0	-3
> C=CCN1CN(S(=O)(=O)c2cccc(Cl)c2)c2nc3ccccc3nc21
 : -5	0.3	-7	-7	0	.
> O=C(NNC(=S)Nc1ccc(Cl)cc1Cl)c1ccncc1
 : -3	0.5	-14	23	-4	5

(continued)
Every second line gives: Six1-Eya2 inh	TRPML1 ag	D2 potentiator	TRPML1 blocker	TRPV1 PAM	CtBP-E1A inh
> COc1ccc(S(=O)(=O)NCC2CCC(C(=O)NCCC(C)C)CC2)cc1 (stereo not given)
 : -2	-0.7	-14	15	2	9
> Cc1c2cnn(CC(=O)NCc3ccccn3)c(=O)c2c(C)n1Cc1ccc(Cl)cc1
 : ?	0.1	-3	11	2	-67*
> CC(=O)Nc1ccc(NC(=O)c2sc(-c3ccccc3)nc2C)cc1
 : -3	0.1	-4	0	-14	2
> COc1ccc(OC)c(C(C(=O)NCc2ccco2)N(C(=O)Cn2nnc3ccccc32)C2CC2)c1 (stereo not given)
 : 3	-1.6	-10	-11	-9	-2
> CCCn1c2ccccc2c2nnc(SCC(=O)Nc3c(C)n(C)n(-c4ccccc4)c3=O)nc21
 : -27	-0.5	-6	-17	1	-12
> CN(C)P(=NC(=O)COc1ccc(Cl)cc1Cl)(N(C)C)N(C)C
 : 4	-0.3	-12	1	2	4
> O=C(/C=C/c1ccco1)Nc1nc(-c2ccccc2)cs1
 : -1	-1.5	-12	-1	11	0
> Cc1ccc(CN2CCN(CC3CC4C=CC3C4)CC2)cc1 (stereo not given)
 : 0	0.0	-32	43	-7	-1
> O=c1[nH]c(=O)c2[nH]c(=O)n(-c3ccccc3)c2[nH]1
 : -2	1.2	1	-1	.	-9
> Cc1ccc(S(=O)(=O)C2(C(=O)Nc3ccc4c(c3)OCO4)CC2)cc1
 : -3	-1.0	1	-1	-9	-1
> O=C(NCCc1ccc2c(c1)OCCO2)c1ccccc1F
 : -4	-0.6	-2	-11	-20	-19
> O=C(c1ccccc1)c1ccc[nH]1
 : 5	-0.3	-7	?	.	13
> N#Cc1ccc(C2=CC(=O)C[C@H](c3ccc(F)cc3)C2)cc1
 : 11	-0.6	-13	-19	-22	-22
> Cc1nc2ccccn2c1/C(O)=C1\C(=O)C(=O)N(CCN2CCOCC2)C1c1ccncc1 (stereo not given)
 : 4	0.1	-4	7	13	7
> O=[N+]([O-])c1cccc(/C=C/c2nc(C=Nc3ccccc3)c(O)o2)c1
 : 5	0.9	-5	10	-9	6

Some of the entries above in another layout:
SMILES,Six1-Eya2 inh,TRPML1 ag,D2 potentiator,TRPML1 blocker,TRPV1 PAM,CtBP-E1A inh
O=c1[nH]c(=O)c2[nH]c(=O)n(-c3ccccc3)c2[nH]1,-2,1.2,1,-1,.,-9
N#Cc1ccc(C2=CC(=O)C[C@H](c3ccc(F)cc3)C2)cc1,11,-0.6,-13,-19,-22,-22
Cc1c2cnn(CC(=O)NCc3ccccn3)c(=O)c2c(C)n1Cc1ccc(Cl)cc1,?,0.1,-3,11,2,-67*
Cc1ccc(S(=O)(=O)C2(C(=O)Nc3ccc4c(c3)OCO4)CC2)cc1,-3,-1.0,1,-1,-9,-1
COc1ccc(S(=O)(=O)NCC2CCC(C(=O)NCCC(C)C)CC2)cc1 (stereo not given),-2,-0.7,-14,15,2,9

Later entries
Every second line gives: Six1-Eya2 inh	TRPML1 ag	D2 potentiator	TRPML1 blocker	TRPV1 PAM	CtBP-E1A inh
> O=C(Nc1nccs1)c1cc2sccc2n1Cc1ccc(F)cc1
 : -10	1.3	3	-1	-6	-15
> Cc1cc(C(=O)CSc2nncs2)c(C)n1-c1ccc2c(c1)OCO2
 : -13	1.5	9	15	-12	0
> O=C(/C=C/c1ccccc1)c1ccccc1O
 : 7	1.5	-10	32	-13	-20
> O=C(COc1ccc(F)cc1Br)N1CCN(c2ncccn2)CC1
 : 9	-0.1	1	-3	4	23
> COC(=O)Nc1ccc(S(=O)(=O)N2CCC(C)CC2)cc1
 : 1	1.6	-5	-9	-10	3
> CCCCc1cn([C@@H](CCCCN)C(=O)N2CCNCC2)nn1
 : 0	0.5	-6	2	19	2
> CS(=O)(=O)c1ccc2nc(NC(=O)C3=NN(c4ccccc4)C(=O)CC3)sc2c1
 : 3	0.7	15	33	-1	-10
> Cc1cccc(NC(=O)c2cccc(C(=O)Nc3cccc(C)c3)n2)c1
 : 7	1.0	-1	-9	.	1
> Cn1cc(C(c2ccccc2OCC(=O)O)c2cn(C)c3ccccc23)c2ccccc21
 : ?	0.5	-5	11	-1	-14
> Cc1ccc(C)c2nc(Cl)c(C#N)cc12
 : 5	1.4	0	-7	3	27

Screening data as filed in PubChem.

Compounds as they come; about 0.95% have a hit in one of these screens.
